# Source: PubChem BioAssay
# Rango release inh: inhibitors of RanGTP-induced Rango-importin beta complex dissociation | O95149+P62826 | Biochemical FRET Rango-importin beta, RanGTP-induced dissociation | Potency, µM (top dose mostly 46.1 µM), without a hit: top-dose activity change, negative = inhibition | 340,000 compounds, 0.071% hits | AID 540253; active means falling FRET ratio curve, often poorly fitted, with flat reads before Ran was added; inconclusive means other falling curves, or compound fluorescence or quenching; inactive means flat or rising ratio curve;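 note: potency is the fitted concentration of half-maximal effect; % of control where 0% means no effect; nearly all actives have a fitted effect of over 45% in size; -100% = wells without RanGTP and RCC1; the record marks most hits as doubtful in a second field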
#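 Compounds preincubate 5 min with complex of recombinant Rango and importin beta in PBS with 1 mM DTT. Ran (0.6 uM) loaded with 2 mM GTP plus 0.2 uM RCC1 starts dissociation; FRET is recorded 45 min later.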
# Rango complex inh: prevents formation of the Rango-importin beta complex | AID 540263 | 340,000 compounds, 0.031% hits | Rango CFP/YFP FRET sensor + importin beta, 45 min | Potency, µM (series often up to 92.2 µM), inactives show at the highest dose inhibition of complex formation; active = rising FRET ratio curve, often small or poorly fitted; inconclusive = mostly compound fluorescence or quenching in the first reads; inactive = flat curves in all reads;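 note: potency is the fitted concentration of half-maximal effect; 0% = DMSO wells and 100% = buffer wells lacking importin beta; nearly all actives have a fitted effect of over 15% in size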
# Target sequence (Q14974 whole entry, looked up): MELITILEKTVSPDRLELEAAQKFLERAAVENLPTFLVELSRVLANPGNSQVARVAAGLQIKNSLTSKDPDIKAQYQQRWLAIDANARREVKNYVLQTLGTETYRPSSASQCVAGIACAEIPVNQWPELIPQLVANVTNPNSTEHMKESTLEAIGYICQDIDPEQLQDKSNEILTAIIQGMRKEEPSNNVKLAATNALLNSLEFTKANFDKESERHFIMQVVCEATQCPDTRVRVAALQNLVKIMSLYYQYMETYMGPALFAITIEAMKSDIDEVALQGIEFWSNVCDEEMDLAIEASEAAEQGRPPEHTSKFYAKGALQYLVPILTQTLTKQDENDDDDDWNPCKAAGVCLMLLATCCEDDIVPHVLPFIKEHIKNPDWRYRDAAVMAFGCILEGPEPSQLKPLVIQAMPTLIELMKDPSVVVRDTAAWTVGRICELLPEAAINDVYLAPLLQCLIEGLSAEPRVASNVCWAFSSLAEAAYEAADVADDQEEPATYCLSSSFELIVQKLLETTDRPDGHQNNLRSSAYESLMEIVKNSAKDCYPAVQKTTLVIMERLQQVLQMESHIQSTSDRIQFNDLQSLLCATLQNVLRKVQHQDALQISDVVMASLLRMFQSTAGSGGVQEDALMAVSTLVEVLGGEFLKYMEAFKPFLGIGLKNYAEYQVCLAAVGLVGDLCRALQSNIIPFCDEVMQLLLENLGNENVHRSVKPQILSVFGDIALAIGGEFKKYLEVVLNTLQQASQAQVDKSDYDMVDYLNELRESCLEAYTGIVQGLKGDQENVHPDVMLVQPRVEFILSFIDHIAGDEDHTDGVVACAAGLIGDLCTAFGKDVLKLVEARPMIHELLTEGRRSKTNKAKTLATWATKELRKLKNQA
#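 FRET biosensor Rango (snurportin 1 IBB between N-terminal EYFP and C-terminal Cerulean), 50 nM in PBS/1 mM DTT/0.02% Tween-20/0.1% BSA, preincubated 5 min RT with compound; 0.125 microM importin beta added, 45 min RT, CFP/YFP FRET ratio read.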
# miR-21 FLuc: raises the signal of a miR-21 reporter; 340,000 tested, under 10 active; HeLa miR-21 FLuc reporter, luciferase, 48 h; AID 2288; Potency, µM (top dose mostly 38.3 µM), for the others: top-dose reporter change, positive = more light; active = well fitted rising curve with a large enough effect; inconclusive = small, poorly fitted or top-dose-only effect; inactive = no such curve, though single readings can be large or run the other way;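 note: % of control where 0% means no effect; miR-21 action dims this reporter so a rising signal means less miR-21 action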
#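 HeLa cells stably expressing CMV-driven firefly luciferase with a downstream miR-21 binding sequence, endogenously expressing miR-21, were treated with titrations (up to about 40uM final) for 48 hours at 37 degree Celsius. Luciferase luminescence was read after lysis.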
# GLA inh pH 4.5: blocks human alpha-galactosidase A at pH 4.5. activity change, negative = inhibition, % at 105 µM. purified enzyme, 4-MU-alpha-Gal fluorescence, pH 4.5. 230,000 tested, under 10 active. P06280; inconclusive = small, poorly fitted or top-dose-only inhibition, or a rising curve; inactive = flat fitted curve, though single readings scatter; no compound was filed as active;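 note: 0% = full activity with enzyme and -100% = basal without enzyme; dose as in the result columns while the protocol names 77 µM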
# Numbers without * were called inactive; u = inconclusive; x = no result given.
canonical_smiles | Rango release inh | Rango complex inh | miR-21 FLuc | GLA inh pH 4.5
COc1ccc(C2N(C(=O)CN3CCOCC3)CCN2S(=O)(=O)c2ccccc2)cc1 (stereo not given) | 1.5% | -1.1% | -2.5% | 3.8
COC(=O)c1c(NC(=O)CN2CCN(c3ncccn3)CC2)sc(C(N)=O)c1C | -12.1% | -3.7% | -10.0% | x
COc1ccccc1NC(=O)Cc1nnc(SCC(=O)Nc2ccc(F)cc2F)n1C | 23.3% | 0.6% | -0.6% | x
COC(=O)c1c(C(=O)OC)c(-c2ccc(F)cc2)n2c1CSC2 | -0.3% | -2.6% | -4.3% | x
COc1ccc2[nH]c3c(=O)n(/N=C/[C@H]4C(C)C=C(C)CC4C)c(=O)[nH]c3c2c1 (stereo not given in full) | -1.8% | 2.2% | 7.1% | x
O=C(O)Cn1c(=O)cnc2ccccc21 | -12.5% | -0.7% | -3.6% | 8.0
CCc1noc(C)c1C(=O)N1CCCC(CCC(=O)NCc2ccc(F)c(F)c2)C1 (stereo not given) | 30.2% | -4.1% | -8.3% | -2.8
Cc1cc(C)c2[nH]c(=O)c(CN(Cc3ccccc3)C(=S)NCCCN(C)C)cc2c1 | 1.1% | 0.1% | -5.4% | 0.3
COC(=O)c1ccc(N/C(C)=C/C(=O)c2ccc(C)o2)cc1 | -6.0% | u | -11.4% | -2.2
CC(C)NC(=O)Nc1cccc2c1O[C@H](CN(C)S(C)(=O)=O)[C@@H](C)CN([C@H](C)CO)C2=O | 1.2% | -0.1% | x | x
O=C(Oc1ccc(Cl)cc1)c1ccc(N2CCOCC2)c([N+](=O)[O-])c1 | -5.6% | -3.3% | -1.5% | 2.9
O=C(COc1ccc(Cl)cc1)NCCNc1ccc([N+](=O)[O-])cc1 | 13.4% | 1.7% | -3.7% | x
CC(=O)Cn1ncc(N(C)Cc2ccccc2)c(Cl)c1=O | 5.5% | 6.0% | -46.9% | x
O=CNCCCc1nc2ccccc2n1CCc1ccccc1 | 1.1% | -0.6% | 3.3% | x
CC(=O)O/N=C/c1c(N2CCOCC2)n(C)c2ccccc12 | -7.2% | 2.2% | 23.4% | 1.2
CCN(CC)c1ccc(/C=N/NC(=S)NCc2ccccc2)cc1 | -12.0% | u | 3.6% | -2.6
O=C(c1cc(F)c(F)c(F)c1F)N1CCN(C(=O)C2CCCO2)CC1 (stereo not given) | 4.4% | -1.1% | x | x
CC(=O)Oc1ccc2c(=O)c(-c3ccccc3)coc2c1 | -1.6% | -3.8% | -55.2% | 2.2
CC(C)Cn1c(-c2cc([N+](=O)[O-])ccc2Cl)nc2c1c(=O)[nH]c(=O)n2Cc1ccccc1 | 5.8% | 2.9% | -10.8% | 5.5
CCCCNC(=O)CNC(=O)c1nn(-c2ccc(OC)cc2OC)c(=O)c2ccccc12 | 10.8% | -0.8% | 0.3% | x
CC(C)(C)OC(=O)N/N=C\c1cccnc1 | 1.5% | 7.1% | -29.5% | 3.9
Cc1nc(C)c(C(=O)Nc2cccc(Cl)c2)o1 | -3.6% | -1.4% | -11.6% | -8.1
NS(=O)(=O)c1ccc(CCNC(=O)CCCNC(=O)c2ccc(Cl)cc2)cc1 | -3.0% | -0.1% | 0.6% | x
O=C(Nc1ccccc1)Nn1cnnc1 | 5.7% | -0.1% | -3.7% | x
CCOC(=O)Cn1nc(-c2ccc(F)cc2)oc1=O | 1.7% | 1.4% | -2.0% | -1.6
COc1ccc(-c2nn(-c3ccccc3)cc2C(=O)NC2CCC(C)CC2)cc1 (stereo not given) | 20.7% | -0.2% | x | x
COc1ccc(/C=N/NC(=S)Nc2ccccc2)cc1COc1cccc(C)c1C | -1.3% | 1.2% | -25.0% | -2.5
c1ccc(Nc2cc(Nc3ccccc3)[nH]n2)cc1 | 19.9% | 3.4% | 6.0% | 0.7
CC(CC(=O)O)CC(=O)Nc1ccccc1C(=O)O (stereo not given) | -2.6% | 0.9% | 1.4% | -0.2
COCCCn1c(SCC(=O)n2c(C)c(C)c3ccccc32)nnc1-c1ccoc1C | 27.4% | 3.0% | -29.3% | -13.7
O=C(Nc1nccs1)C(c1ccccc1)N1CCCCC1 (stereo not given) | 11.7% | -0.3% | 5.6% | 7.2
N#Cc1nc(-c2cccs2)oc1N1CCN(Cc2ccccc2)CC1 | -1.4% | -3.8% | -12.8% | 9.9
CN1CCCC1CCNc1ccc2oc3ccccc3c(=O)c2c1 (stereo not given) | u | u | -19.3% | x
O=C(NNC(=O)c1ccc(Cl)c([N+](=O)[O-])c1)c1ccncc1 | 11.7% | 0.7% | 4.1% | x
CC1Cc2cc(-c3csc(NC(=O)Cc4cccs4)n3)ccc2N1S(C)(=O)=O (stereo not given) | 2.5% | 0.0% | u | -1.6
CC(C)C[C@@H](CO)N1CCN(Cc2ccc([N+](=O)[O-])cc2)CCC1=O | 13.5% | -0.4% | 1.4% | x
CCN(Cc1ccncc1)C(=O)c1cc(COc2ccc(C)c(C)c2)on1 | -6.9% | -2.1% | 10.2% | x
CCC(CC)C(=O)c1c[nH]c(C(=O)NCc2ccco2)c1 | 3.5% | -1.8% | -6.5% | 4.6
COCCNc1nc2c(c(=O)n(Cc3ccccc3F)c(=O)n2C)n1C | 11.5% | 0.3% | 1.2% | x
C=CCOc1nc2c(c(=O)n(C)c(=O)n2C)n1Cc1ccc(Cl)cc1 | 0.0% | -0.2% | 0.4% | -0.5
O=C1c2ccccc2[C@@H]2C[C@H](NC34CC5CC(CC(C5)C3)C4)[C@@H](O)CCN12 | -11.9% | -1.9% | x | x
CC(=O)Nc1ccc(C(=O)OCC(=O)c2ccc(C)c([N+](=O)[O-])c2)cc1 | 18.9% | -3.1% | -4.3% | 5.9
CCOc1cc(C(=S)N2CCOCC2)ccc1O | -12.9% | 0.2% | 0.5% | 7.7
CN(CCC#N)C(=O)Cn1nc(Cc2ccncc2)c2ccccc2c1=O | 1.2% | -0.4% | -0.5% | -1.6
CC(=O)OCc1c(COC(C)=O)[n+](=O)c2ccccc2n1[O-] | 23.6% | -2.9% | -3.7% | -10.4

# In a second layout: three of the compounds above
# Order of results – Rango release inh	Rango complex inh	miR-21 FLuc	GLA inh pH 4.5
> CCC(CC)C(=O)c1c[nH]c(C(=O)NCc2ccco2)c1
 : 3.5%	-1.8%	-6.5%	4.6
> CC1Cc2cc(-c3csc(NC(=O)Cc4cccs4)n3)ccc2N1S(C)(=O)=O (stereo not given)
 : 2.5%	0.0%	u	-1.6
> CCN(Cc1ccncc1)C(=O)c1cc(COc2ccc(C)c(C)c2)on1
 : -6.9%	-2.1%	10.2%	x

# Next part:
canonical_smiles | Rango release inh | Rango complex inh | miR-21 FLuc | GLA inh pH 4.5
COc1cccc(CN2CCC(C(=O)N3CCN(Cc4ccc5c(c4)OCO5)CC3)CC2)c1 | 0.4% | -0.5% | -5.7% | x
COc1ccc(C(C(=O)NC2CCCCC2)N(Cc2cccs2)C(=O)Cc2c[nH]c3ccccc23)cc1 (stereo not given) | -3.2% | -0.4% | 18.4% | -4.6
O=C(NCC1CCCO1)c1ccc(Cl)c(S(=O)(=O)N2CCCCC2)c1 (stereo not given) | -9.2% | 0.3% | 6.1% | x
COc1ccc2c(c1O)-c1ccccc1CCN(C)C2 | 13.3% | 0.9% | -3.7% | 5.3
O=C(NCc1ccccc1)C1=C[C@H](c2coc3ccccc3c2=O)C[C@H](OCc2ccc(CO)cc2)O1 | -8.7% | -0.1% | 0.9% | -6.3
COc1cccc2cc(C(N)=O)/c(=N/NC(=O)COc3ccc(Cl)cc3)oc12 | x | x | -2.9% | 2.5
COc1ccc(-c2csc(NC(C)c3nc4cc(Cl)c(Cl)cc4n3CCCO)n2)cc1 (stereo not given) | -11.1% | -1.8% | x | x
COC(=O)CN(C#N)c1nc(NCc2ccccc2)nc(OC)n1 | -7.3% | 3.3% | 1.1% | x
CN(C)CCCNC(=O)C1(O)c2cc(Br)ccc2NC(=O)N1c1c(F)cccc1F (stereo not given) | 22.0% | 5.6% | -2.5% | x
Cc1ccc(COCCN2CCN(S(=O)(=O)c3ccc(C)cc3)CCC2=O)cc1 | 17.0% | 0.5% | -2.2% | -12.5
O=C(CSc1nncn1-c1ccccc1)Nc1ccc(N2CCOCC2)cc1 | -0.9% | -3.4% | 4.4% | 3.0
O=C1CC(O)(C(F)F)Oc2ccc3ccccc3c21 (stereo not given) | -0.1% | 0.1% | -10.9% | -1.9
O=C(CNS(=O)(=O)c1ccccc1)OCC(=O)c1c[nH]c2ccccc12 | 4.9% | -1.8% | x | x
CCOC(=O)N1CCN(C(=O)C2CCN(S(=O)(=O)c3ccc(F)cc3)CC2)CC1 | 10.6% | 1.0% | -3.0% | 2.8
COc1ccc(/C=C(\NC(=O)c2ccccc2)C(=O)NCc2cccnc2)cc1 | -3.0% | -1.2% | -1.8% | x
O=C(NC1CCCCC1)C(c1ccc2ncccc2c1)N(Cc1cccs1)C(=O)c1cccs1 (stereo not given) | 11.0% | -3.9% | 16.8% | -8.9
CC(OC(=O)c1ccc2noc(-c3ccccc3)c2c1)C(N)=O (stereo not given) | -22.8% | u | -9.4% | x
O=C(CCCCCN1C(=O)c2cccc3cccc(c23)C1=O)NCCCO | 15.8% | 10.1% | -12.9% | x
COC(=O)Nc1sc2c(c1C(=O)NCc1ccco1)CCC2 | 3.4% | -1.4% | -0.9% | 15.1
CCOC(=O)Cc1csc(NC(=O)c2cc(OC)cc(OC)c2)n1 | 0.4% | -0.7% | -10.0% | -22.0
CCN(C(=O)c1cn(C)c(=O)c2cc(OC)c(OC)cc12)c1cc(C)ccc1C | -10.8% | 0.1% | -1.0% | 4.2
CCc1cc(C(=O)NNC(=S)NC(C)c2ccccc2)cs1 (stereo not given) | -12.4% | -2.3% | 15.0% | -12.0
Cc1ccc(N(CC(=O)N/N=C/c2cccs2)S(C)(=O)=O)cc1 | -14.5% | -2.0% | -15.2% | 7.6
Cn1c(=O)c2c(SCc3ccccc3)nc(C3CC3)nc2n(C)c1=O | 1.3% | 0.3% | 4.9% | -5.1
O=C(COC(=O)c1nc(Cl)ccc1Cl)NC1CCCCCC1 | -0.3% | -0.4% | x | x
CSc1ncc(CN2CCc3c([nH]c4ccccc34)C2C(C)(C)C)cn1 (stereo not given) | -24.7% | u | 1.5% | x
CCc1ccc(N2CCN(S(=O)(=O)CC34CCC(CC3=O)C4(C)C)CC2)cc1 (stereo not given) | 6.1% | -4.1% | 6.0% | x
COc1ccc(N(C(C)C(=O)NCCSCc2cccc(Cl)c2)S(C)(=O)=O)cc1 (stereo not given) | 1.6% | -1.0% | 9.0% | x
CC(C)C(NC(=O)c1c(F)cccc1F)C(=O)N1CCN(c2ncccn2)CC1 (stereo not given) | 23.0% | 0.1% | x | x
O=C(NNc1c(Cl)cncc1Cl)c1cccs1 | 10.9% | -1.7% | 2.7% | 6.2

# The last two compounds of the part above open the next one.
canonical_smiles | Rango release inh | Rango complex inh | miR-21 FLuc | GLA inh pH 4.5
CC(C)C(NC(=O)c1c(F)cccc1F)C(=O)N1CCN(c2ncccn2)CC1 (stereo not given) | 23.0% | 0.1% | x | x
O=C(NNc1c(Cl)cncc1Cl)c1cccs1 | 10.9% | -1.7% | 2.7% | 6.2
C/C(=N\NC(=O)C(c1ccncc1)N1CCOCC1)c1ccc(Br)cc1 (stereo not given) | 15.7% | -3.6% | -5.6% | -0.9
CC1CCN(c2ccc(C(=O)O)cc2)CC1 | 2.0% | -3.3% | -6.7% | 1.1
Cc1cc(C(=O)NNCc2ccccc2)no1 | 4.1% | 2.8% | x | 6.5
CC1(c2ccccc2)NC(=O)N(CC(=O)NC(=O)NCc2ccco2)C1=O (stereo not given) | -8.6% | -1.5% | -7.2% | 5.9
COc1ccc(NC(=O)c2cc(-c3ccccc3O)n[nH]2)cc1Cl | 1.5% | 4.0% | -23.7% | x
COc1ccc(C(=O)OCC(=O)c2ccc(Br)s2)c(OC)c1 | 20.1% | 1.7% | x | x
CC1(NC(=O)c2cccc(S(=O)(=O)N3CCN(c4ccc(F)cc4)CC3)c2)CCS(=O)(=O)C1 (stereo not given) | 0.1% | -0.3% | x | x
Cc1cc(N2CCN(c3cccc(C(F)(F)F)c3)CC2)n2ncnc2n1 | 0.8% | 1.9% | -4.2% | -3.2

# Not all compounds are listed; rates above refer to the full screens.
